# Choline anaer gr = blocks anaerobic gram-negative growth on choline; actives 0.2% (n = 55,000); AID 1963822; calls only; Gram-negative bacterium anaerobic choline minimal medium, absorbance growth; stronger effect = lower value; many inactives read as strong as hits in the columns shown;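 active = growth z-score on choline under -2 at 7 or 20 h with little or no fall on glycerol, limits in tiers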;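 also: stock transfer was 300 nL into about 50 µL; the organism is E. coli; final concentration not given here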
# Choline anaer gr early = recorded beside Choline anaer gr, whose call it bears; z-score; measured here: choline growth z-score, timepoint 1;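 score of optical density at 7 h as mean of two plates; lower means less growth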
# * = called active by the depositor; i = inactive; + = active, no number; & = joins results of further samples. The list is partial. The share of hits here may be higher or lower than overall.
SMILES,Choline anaer gr,Choline anaer gr early
CCN1C(=O)CCc2cc(NS(=O)(=O)c3ccc(Cl)cc3)ccc21,i,-1.3
Cc1ccc(C)c(CSc2nnc3c(S(=O)(=O)N4CCCC4)cccn23)c1,i,0.93
CCOc1ccc2nc(NC(=O)C3CCN(S(=O)(=O)c4cn(C)c(C)n4)CC3)sc2c1,i,-2.3
CNC(=O)c1csc2c1CCCCC2,i,0.27
CCCC(=O)Nc1ccc2c(c1)nc1n2CCN(C(C)C)C1,i,0.49
COc1ccc(NC2(c3nnnn3-c3ccc(OC)c(OC)c3)CCCC2)cc1OC,i,0.68
Cc1cc(F)ccc1NS(=O)(=O)c1cc2c3c(c1)CCN3C(=O)CC2,i,0.36
CNC(=O)c1cnn2c3c(cnc12)CCCCCC3,i,0.1
CCc1ccccc1NC(=O)CSc1nc(=O)[nH]nc1C,i,-1.4
CS(=O)(=O)NC1CCN(C(=O)C2CCCC2)C1 (configuration not stated),i,0.92
O=C(NC1CCCN(c2cc(N3CCCC3)ncn2)C1)c1ccco1 (configuration not stated),i,0.55
COc1cccc(C2CC(=O)Nc3c2c(C)nn3-c2ccc3nncn3n2)c1OCc1cccc(F)c1 (configuration not stated),i,1.4
Cc1cc(C)n2nc(N(C)S(=O)(=O)c3ccccc3)nc2n1,i,0.51
COc1cc2c(cc1C(F)(F)F)N(C(=O)Nc1cc(F)cc(-c3cccnc3)c1)CC2,i,0.56
Cn1cc(-c2cc3n(n2)CCC(=O)N3CC(=O)N2CCN(C3CCCCC3)CC2)c2ccccc21,i,0.32
O=S(=O)(c1ccc(-c2noc(-c3cnccn3)n2)cc1)N1CCCCC1,i,0
COc1cc(NS(=O)(=O)c2cc(-c3nc(C)cs3)cs2)cc(OC)c1,i,-0.14
Cn1nnc2c(Nc3ccc(Nc4ccccc4)cc3)ncnc21,i,-0.1
CCOc1ccc(CN2C(=O)c3oc4ccccc4c3OCC2(C)C(=O)NC2CCCC2)cc1 (configuration not stated),i,0.34
CCOc1ccc(-c2noc(Cn3nc(-c4ccccc4)c4ccccc4c3=O)n2)cc1,i,0.35

# 14 entries out of the list, arranged by molar mass, smallest number first.
SMILES,Choline anaer gr,Choline anaer gr early
CNC(=O)c1csc2c1CCCCC2,i,0.27
CCCC(=O)Nc1ccc2c(c1)nc1n2CCN(C(C)C)C1,i,0.49
CCc1ccccc1NC(=O)CSc1nc(=O)[nH]nc1C,i,-1.4
Cc1cc(C)n2nc(N(C)S(=O)(=O)c3ccccc3)nc2n1,i,0.51
Cc1cc(F)ccc1NS(=O)(=O)c1cc2c3c(c1)CCN3C(=O)CC2,i,0.36
CCN1C(=O)CCc2cc(NS(=O)(=O)c3ccc(Cl)cc3)ccc21,i,-1.3
O=S(=O)(c1ccc(-c2noc(-c3cnccn3)n2)cc1)N1CCCCC1,i,0
COc1cc(NS(=O)(=O)c2cc(-c3nc(C)cs3)cs2)cc(OC)c1,i,-0.14
Cc1ccc(C)c(CSc2nnc3c(S(=O)(=O)N4CCCC4)cccn23)c1,i,0.93
CCOc1ccc(-c2noc(Cn3nc(-c4ccccc4)c4ccccc4c3=O)n2)cc1,i,0.35
COc1ccc(NC2(c3nnnn3-c3ccc(OC)c(OC)c3)CCCC2)cc1OC,i,0.68
CCOc1ccc(CN2C(=O)c3oc4ccccc4c3OCC2(C)C(=O)NC2CCCC2)cc1 (configuration not stated),i,0.34
CCOc1ccc2nc(NC(=O)C3CCN(S(=O)(=O)c4cn(C)c(C)n4)CC3)sc2c1,i,-2.3
COc1cccc(C2CC(=O)Nc3c2c(C)nn3-c2ccc3nncn3n2)c1OCc1cccc(F)c1 (configuration not stated),i,1.4

# Other structures follow.
SMILES,Choline anaer gr,Choline anaer gr early
CC(=O)NCCc1nc2ccccc2n1Cc1c(C)cc(C)cc1C,i,0.62
CC(C)CC(=O)Nc1ccc(-c2nc3ccccc3s2)cc1,i,1.3
Cc1ccc(C)c(Cn2nc3c(S(=O)(=O)N4CCCCC4)cccn3c2=O)c1,i,1.8
O=C(c1ccc(Br)cc1)N1CCN=C1N1CCOCC1,i,-1.1
Cc1noc2nc(CCC(=O)NC(C)C)nc(N3CC(C)CC(C)C3)c12 (configuration not stated),i,-2
Fc1ccc(C2NCCc3c2[nH]c2ccccc32)cc1 (configuration not stated),i,0.56
Clc1nnc(N2CCSCC2)c2ccccc12,i,-0.19
Cn1c(=O)c2nc(SCC(=O)O)n(Cc3ccccc3)c2n(C)c1=O,i,0.62
Cc1nc(Nc2ccc(NC(=O)C(C)C)cc2)cc(N(C)C)n1,i,-0.34
Nc1ccc(S(=O)(=O)NC(=O)c2ccccc2)cc1,i,-0.04
CCC(C)NC(=O)C1CC(=O)N(c2ccc3c(c2)CCN3C(C)=O)C1 (configuration not stated),i,0.3
COc1cccc(NC(=O)c2cccc(Oc3ccnc(-c4cccc(C)c4)n3)c2)c1,i,0.89
O=C1CN(Cc2ccccc2F)S(=O)(=O)c2ccccc2N1Cc1ccccc1,i,-0.46
CCOc1c(Br)cc(C2Nc3ccc(CC)cc3[C@H]3OCC[C@@H]23)cc1OC (some centres not stated),i,1.5
CCc1ccc(-c2ccc(=O)[nH]n2)cc1S(=O)(=O)Nc1ccc(C)cc1C,i,0.05
COCCN1CN=C(NS(=O)(=O)c2ccc(C)cc2)NC1,i,0.49
C=CCn1c(SCC(=O)Nc2ccc(C)cc2)nc2sc(C)c(C)c2c1=O,i,1.4
C[C@]12C=CC(=O)C=C1CC[C@@H]1[C@@H]2[C@@H](O)C[C@@]2(C)[C@H]1CC[C@]2(O)C(=O)CO,i,0.81&0.22
Cc1nn(-c2ccc(N3CCCC3)nn2)c(C)c1CCC(=O)NC1CCN(Cc2ccccc2)CC1,i,0.78
O=c1c2c(-c3ccccc3)csc2ncn1C1CCCC1,i,0.91
CCn1c(=O)c2sccc2n2c(CCC(=O)NC(C)C)nnc12,i,-0.05
CCOCCCNC(=O)CCc1c(C)nn(-c2ccc3nnc(C)n3n2)c1C,i,0.16
CC(=O)Nc1ccc2c(c1)nc(CN1CCOCC1)n2C,i,-2.2
CNC(=O)C1CN(C(=O)CC2CCCCC2)CC12CCCC2 (configuration not stated),i,-0.15
O=C(Cn1ncc2ccccc21)NCCc1ccccc1,i,-0.98
Cc1ccccc1CSc1nn2c(=O)c(C)nnc2s1,i,0.18
COc1ccc(N2CCN(c3nccc4ccc(C(=O)Nc5ccc(OC)c(OC)c5)cc34)CC2)cc1,i,-0.49
CCc1c(C)nc2ncnn2c1Nc1ccccc1,i,0.76
Clc1ccc(OCCSc2nnc(-c3ccc4c(c3)OCO4)o2)cc1,i,-0.45
c1cc(N2CCOCC2)ccc1-c1noc(C2CC2)n1,i,-0.4
O=S(=O)(c1ccc(F)cc1F)N1CCN(c2ncnc3c2nnn3-c2ccc(F)cc2)CC1,i,-0.23
CN(C)CCNCc1ccc(-c2ccccc2)o1,i,-0.04
Cc1c(-c2nsc(Nc3ccccc3)n2)nnn1-c1ccccc1,i,0.86
Brc1ccc(-c2csc(Cc3nc(-c4ccc5c(c4)OCO5)no3)n2)cc1,i,1.1
O=C(CSc1nnc(-c2cc3ccccc3o2)n1-c1ccccc1)N1CCN(c2ccccc2)CC1,i,0.1
COC(=O)c1ccc(Nc2nc(C)c3nnn(-c4ccc(C(=O)OC)cc4)c3n2)cc1,i,0.58
CCCN(CCC)C(=O)Cn1ncc2c3ccccc3n(C)c2c1=O,i,0.73
CC1Cc2cc(S(=O)(=O)N3CCN(c4ccccc4)CC3)ccc2N1C(=O)C1CC1 (configuration not stated),i,0.72
CC(C)(C)c1ccccc1OC(=O)CSc1nc(-c2ccccc2)nc2cc(=O)[nH]n12,i,-1
CCOc1ccc(CN2CCCC2c2cc(C)no2)cc1OCC (configuration not stated),i,0.78
COc1ccccc1C1C=C(c2ccc(Cl)cc2)Nc2nc(-c3ccc(Cl)cc3)nn21 (configuration not stated),i,1.4
CCCc1cc(NCc2ccccn2)n2ncc(-c3ccccc3)c2n1,i,0.78
COc1ccc(Cl)cc1N1C(=O)[C@@H]2CCCN2[C@H]1c1ccc(N(C)C)cc1,i,0.25
O=C(Nc1ccc(SCc2nnc(-c3ccccc3)o2)cc1)c1cccc(Cl)c1,i,1.6
Cc1ccc(-c2nc(C3CCN(S(=O)(=O)c4cc(C)c(C)cc4C)CC3)no2)cc1,i,0.32
Cc1csc(NC(=O)COc2ccccc2-c2nc(C(C)C)no2)n1,i,0.44
CC(C)N(CCCNC(=O)CN1C(=O)CC(C)(C)S(=O)(=O)c2ccccc21)Cc1ccccc1,i,0.07
Cc1ccc(-n2ncc(C(=O)Nc3ccc(Br)cc3)c2C2CCNCC2)cc1,i,1.4
O=C1C(CCS(=O)c2ccccc2)C(=O)N(c2ccccc2)N1c1ccccc1 (configuration not stated),i,0.82
CC(C)(CO)C(O)C(=O)NCCC(=O)NCCSSCCNC(=O)CCNC(=O)C(O)C(C)(C)CO (configuration not stated),i,0.54
Cc1ccc(-c2ccc(N3CCN(c4ccccn4)CC3)nn2)cc1S(=O)(=O)N1CCCC1,i,1.9
COC(=O)c1c(NC(=O)C2Cc3ccc(C)cc3C(=O)O2)sc2c1CCC2 (configuration not stated),i,-0.6
COc1cc(C(=O)C2CC(=O)Nc3n[nH]c(-c4ccc(OC)c(OC)c4)c32)ccc1F (configuration not stated),i,0.22
O=C1CC(c2ccc(F)cc2)=Nc2ccccc2N1Cc1ccc(Cl)cc1,i,0.58
COc1ccc(N2C(=O)CCS2(=O)=O)cc1S(=O)(=O)Nc1ccc(Br)cc1,i,0.26
CCOC(=O)c1cnn(-c2ccc(C(=O)N3CCN(c4cc(C)ccc4C)CC3)cc2)c1N,i,-0.24
O=c1[nH]nc(N2CCCC2)c2ccccc12,i,-0.57
Cc1cc(OCCSc2nnc(-c3ccc4c(c3)OCCCO4)n2C)ccc1Cl,i,0.92
CCCn1c(CN2CCC(C)CC2)nc2c1c(=O)n(C)c(=O)n2C,i,0.8
O=C(Cn1cnc2c(nc3n2CCCCC3)c1=O)N1CCOCC1,i,-0.44

# Carrying on:
SMILES,Choline anaer gr,Choline anaer gr early
Cc1ccc2cc(-c3noc(CCC(=O)NCC4CCCO4)n3)c(=O)[nH]c2c1 (configuration not stated),i,-0.4
Cc1[nH]c(C(=O)N2CCCC(C(=O)N3CCN(C4CCCCC4)CC3)C2)c(C)c1C(=O)OC(C)C (configuration not stated),i,-1.6
O=S(=O)(c1cccc2c(I)cccc12)N1CCCNCC1,i,-1.1&-2.3
COc1ccc(N2CCN(C(=O)c3cc(C)on3)CC2)cc1,i,-0.11
Cc1ccc(S(=O)(=O)CCc2noc(-c3sc(C)nc3C)n2)cc1,i,-1.6
Cc1nn(-c2ccc(-c3ccccc3)nn2)c(C)c1S(=O)(=O)N1CCCCC1,i,1.9
O=S(=O)(c1ccccc1F)N1CCN=C1N1CCN(c2cccc(Cl)c2)CC1,i,-0.1
Nc1cc(-c2ccccc2)nn1S(=O)(=O)c1ccc(Cl)cc1,i,0.77
CCCc1nc2nc(C)cc(N3CCN(c4cc(C)ccc4C)CC3)n2n1,i,-1.4
O=C(NCCN1CCOCC1)c1cc(C2CC2)on1,i,-0.15
OCc1nc2ccccc2n1CCCCOc1ccccc1,i,-0.22
CC1CCN(S(=O)(=O)c2ccc3c(c2)N(CC(=O)NCC2CCCO2)C(=O)CC(C)S3)CC1 (configuration not stated),i,0.28
CCc1cccc(-n2nnnc2N2CCN(C(=O)Nc3cc(C)ccc3C)CC2)c1,i,0.48
O=C(CSc1nnc(-c2ccncc2)o1)Nc1ccc2c(c1)OCO2,+,-1.1*
COc1ccc(Cl)cc1NC(=O)Cn1c(=O)n2nc(CCn3nc(C)cc3C)nc2c2ccccc21,i,-0.04
Cc1cc(C(=O)N2CCCC2c2cc(C)on2)no1 (configuration not stated),i,0.3
O=C(Cn1nc2c3sccc3ncn2c1=O)Nc1ccc2c(c1)OCO2,i,-0.1
CN1CCN(C(CNC(=O)c2cccc(Br)c2)c2ccc(N(C)C)cc2)CC1 (configuration not stated),i,0.4
CCN(CC)CCNC(=O)c1c(C)[nH]c(/C=C2\C(=O)Nc3ccc(F)cc32)c1C,i,1.1
COc1ccc(NC(=O)N(C)CCc2noc(COc3ccccc3)n2)c(OC)c1,i,-0.93
CCOc1ccc(-c2nonc2NC(=O)COc2cc(C)c(Cl)c(C)c2)cc1C,i,0.53
CCOc1ccc(-c2ccc(OCCNS(=O)(=O)N(C)C)nn2)cc1,i,0.98
C=CCSc1nc2c(c(=O)[nH]1)CCC2,i,-1.9
Cc1cc(C2CCCN2S(=O)(=O)c2ccc(Br)s2)no1 (configuration not stated),i,0.21
C=C(C)CN1CCN(c2cc(C)nc3c(C)c(-c4ccc(C)cc4)nn23)CC1,i,-0.23
O=C(c1cc(-c2ccccn2)n[nH]1)N1CCCC(C(=O)N2CCc3ccccc32)C1 (configuration not stated),i,0.31
Cc1nn(CC(=O)NC(C)(C)C)c(C)c1S(=O)(=O)N1CCCC(C(=O)NC2CCCC2)C1 (configuration not stated),i,-0.29
CC(C)[N+]1(C)C2CCC1CC(OC(=O)C(CO)c1ccccc1)C2 (configuration not stated),i,0.4&0.12
O=C(c1cnc2sccn2c1=O)N(Cc1ccccc1)c1ccccn1,i,0.33
CCC(CC)C(=O)Nc1ncc2c(n1)CC(c1ccc(OC)c(OC)c1)CC2=O (configuration not stated),i,-0.18
COc1ccc(NC(=O)Nc2c(-c3cccnc3)[nH]c3ccccc23)cc1,i,-1.2
CCOC(=O)c1c(NC(=O)c2cc3ccccc3c(=O)o2)sc2c1CCC(C)C2 (configuration not stated),i,-0.74
O=C(C1CCN(c2nccn3nc(-c4ccccc4)cc23)CC1)N1CCN(Cc2ccccc2)CC1,i,-0.74
O=S(=O)(NCCn1c(C(F)(F)F)nc2cccnc21)c1ccc(Cl)cc1,i,-0.49

# Screening results as filed in PubChem BioAssay.
